# High-throughput results deposited in PubChem by National Center for Advancing Translational Sciences (NCATS).
# HPGD block: qHTS Assay for Inhibitors of HPGD (15-Hydroxyprostaglandin Dehydrogenase). 15-hydroxyprostaglandin dehydrogenase [NAD(+)] (Homo sapiens), P15428. purified HPGD, NADH fluorescence kinetic, PGE2 substrate. 150,000 tested, 4.3% active. Potency, µM, for the others: top-dose activity change, negative = inhibition, usual class: inhibitors. AID 894, 2007; active = well fitted inhibition curve with a large enough effect (not every such curve was filed as active); inconclusive = small, poorly fitted or top-dose-only effect, or another doubt; inactive = no such curve, though single readings can be large or run the other way;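 also: top concentration of the series not given in the record; plate controls included wells without enzyme; inactives centre near -10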
# Target sequence (P15428 whole entry, looked up): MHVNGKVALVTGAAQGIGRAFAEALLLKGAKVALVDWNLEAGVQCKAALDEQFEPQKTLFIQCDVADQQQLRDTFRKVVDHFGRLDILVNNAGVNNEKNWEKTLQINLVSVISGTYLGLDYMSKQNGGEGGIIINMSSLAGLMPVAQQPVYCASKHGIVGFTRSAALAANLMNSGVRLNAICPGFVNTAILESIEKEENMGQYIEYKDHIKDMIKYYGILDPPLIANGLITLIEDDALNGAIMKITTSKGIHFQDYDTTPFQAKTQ
#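 20 nM HPGD preincubated 15 min at room temperature with compound in 50 mM Tris-HCl pH 8, 0.01% Tween 20. Started with 1 mM NAD+ and 30 uM prostaglandin E2; NADH fluorescence (360/450 nm) read 5 times over 30-s intervals, last minus first.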
# * = called active by the depositor; ? = inconclusive; & = joins results of further samples. % is scaled to controls: 0 for no effect and ±100 for the full control effect; potency is read from the fitted curve at half-maximal effect. Only part of the results is shown. The share of hits here may be higher or lower than overall.
# The first four records as a preview:
mol,HPGD block
CCCCCCN(C(=O)CCCCCN1C(=O)NC(c2ccc([N+](=O)[O-])cc2)C(C(=O)OCc2ccccc2)=C1C)C(C(=O)NCCCC)c1ccc(OCC(=O)OC)c(C(=O)OC)c1 (stereo not drawn),-6%
CCC(=O)N(C)CCc1cc2c(c(OC)c1/C=N/NC(=O)c1ccc(Br)cc1)OCO2,-10%
CCCN1CNC(=S)N(c2ccccc2OC)C1,-12%
Cc1ccc(NC(=O)c2ccc(OC(=O)C(C)Oc3ccc(Cl)cc3C)cc2)cc1 (stereo not drawn),-10%

# The list itself (from the top)
mol,HPGD block
CCCCCCN(C(=O)CCCCCN1C(=O)NC(c2ccc([N+](=O)[O-])cc2)C(C(=O)OCc2ccccc2)=C1C)C(C(=O)NCCCC)c1ccc(OCC(=O)OC)c(C(=O)OC)c1 (stereo not drawn),-6%
CCC(=O)N(C)CCc1cc2c(c(OC)c1/C=N/NC(=O)c1ccc(Br)cc1)OCO2,-10%
CCCN1CNC(=S)N(c2ccccc2OC)C1,-12%
Cc1ccc(NC(=O)c2ccc(OC(=O)C(C)Oc3ccc(Cl)cc3C)cc2)cc1 (stereo not drawn),-10%
Cc1ccc(Cl)cc1N1CCN(S(=O)(=O)c2cccc(S(=O)(=O)N3CCCC3)c2)CC1,-15%
O=c1n(Cc2ccccc2F)c2ccccc2n1Cc1ccccc1F,-23%
CCSC1=C(C#N)C(=O)n2c1cc1c2CCCC1,-29%
COCCNC(=O)/C(C#N)=C1\N=C(N)c2ccccc21,14µM*
O=C(NNC(=O)C1CC1c1ccccc1)Nc1ccccc1 (stereo not drawn),-5%
CN=C1SC(CC(=O)Nc2sc3c(c2C#N)CCCC3)C(=O)N1C (stereo not drawn),-11%
CCN1C(=O)C(Cc2nc3ccccc3c(=O)n2C)c2ccccc21 (stereo not drawn),-4%
Cc1ccc2cc(-c3noc(C4CCCO4)n3)c(=O)[nH]c2c1 (stereo not drawn),?
CCOc1ccccc1NC(=O)CSc1nc(N)c(C#N)cc1C#N,-25%
O=S(=O)(c1ccccc1)N1CCC(O)(CSc2ccc(Cl)cc2)CC1,-5%
OC(CNCc1ccccc1)(c1ccc(F)cc1)c1ccc(F)cc1,-9%
N#CC(c1nc2ccccc2nc1N1CCCCC1)S(=O)(=O)c1ccc(Cl)cc1 (stereo not drawn),-8%
Cc1ccc(-n2nnnc2SCC(=O)NC2CCCc3ccccc32)c(C)c1 (stereo not drawn),-23%
CCN(CC)CCNC(=O)COc1ccc(Cl)cc1Cl,1%
Fc1ccc(-n2c(Cc3ccccc3)nnc2SCc2nc(-c3cccs3)no2)cc1,-18%
C=CCn1c(C(CCCC)CC(C)O)n[nH]c1=S (stereo not drawn),-4%
Cn1c(=O)c2cc(S(=O)(=O)NCCC(=O)NCc3ccccc3Cl)ccc2n(C)c1=O,-12%
Cc1ccc(NC(=O)/C(C#N)=C/c2ccccc2C(F)(F)F)cc1,-18%
Cc1ccccc1-c1nc(CN2CCC(C(=O)NCCCN3CCCC3)CC2)c(C)o1,-2%
CCOc1ccc(CCNS(=O)(=O)c2c(C)n[nH]c2C)cc1OCC,-8%
CC1CN(C(=O)c2ccc(CNS(=O)(=O)c3cccc(C(F)(F)F)c3)cc2)CC(C)O1 (stereo not drawn),-21%
O=C(OCCN1CCOCC1)c1ccc(OCCN2CCOCC2)cc1,-9%
CC(=O)Nc1ccc(OC(=O)C(CCS(C)(=O)=O)N2C(=O)c3ccccc3C2=O)cc1 (stereo not drawn),-12%
CC1(C)C(c2cccs2)=[N+]([O-])C2(CCCCC/C2=N\O)N1O (stereo not drawn),-5%
Cc1cc(O)c(C(C)C)cc1NC(=O)c1ccccc1Cl,-3%
O=C(COC(=O)c1ccc2ccccc2c1)NCCCc1ccccc1,-3%
Cc1cc(C)c(N=C2CCCN2Cc2ccccc2)c(C#N)c1,-12%
CCOC(=O)CSc1nc2cc(OC)ccc2cc1C#N,-18%
CC(C)N(c1nnc(N)s1)C(C)C,-1%
C(=N\n1cnnc1)/c1cn(-c2cccs2)nc1-c1ccccc1,?
Cc1[nH]n(-c2ccccc2)c(=O)c1C(C[N+](=O)[O-])c1ccc(Br)cc1 (stereo not drawn),?
CCC(Sc1ccc2nnc(-c3ccc(F)cc3)n2n1)C(=O)OC (stereo not drawn),-27%
COc1ccc(Cl)cc1NC(=O)c1oc(C)nc1C,-14%
CCOC(=O)C1CCCN(CC(O)COc2ccccc2C(C)=O)C1 (stereo not drawn),-9%
CCCCP(=O)(CCCC)Cc1ccccc1O,-4%
CC1CN=C(N(C(=O)Nc2ccccc2)c2ccc(F)cc2)S1 (stereo not drawn),10µM*
CSc1ncnc2c1ncn2CC(=O)[C@H]1CC[C@H]2[C@H]3CCC4=CC(=O)CC[C@@]4(C)[C@@H]3CC[C@@]12C,0%
Cc1ccc(C(=O)C2CCN(CC(=O)NC3CCCCC3)CC2)cc1,-7%
OCCN(Cc1ccccc1)Cc1cccc(C(F)(F)F)c1,3%
CCc1c(-c2ccccc2)nc2nc(C)c(C)nn12,?
CCC(C)C(NC(=O)C1CCC(C)CC1)C(=O)NC(CCSC)C(=O)OC (stereo not drawn),-2%
Cc1cccc(Cc2cnc(NC(=O)CN3C(=O)/C(=C/c4ccccc4)SC3=S)s2)c1,-22%
Cc1sc2c(c1C)CN(C1CC(C)(C)NC(C)(C)C1)CN2C(=O)c1ccco1,-12%
CC(=O)c1ccc(OCCCC(=O)OCc2nnc(-c3ccc(Cl)cc3)o2)cc1,-15%
O=C(N/N=C/c1ccccc1Cl)c1ccc(F)cc1,-19%
CCNC(=S)N/N=C/c1cccc(OCc2c(F)cccc2Cl)c1,-20%
O=C(NC1CCCCC1)/C(=N\O)c1ccccn1,0%
CCCCSc1nc(C)[nH]c1[N+](=O)[O-],1%
CCCCn1c(NC(C)=O)c(C#N)c2nc3ccccc3nc21,?
CCOC(=O)c1c(C)nc2sc3c(=O)n(-c4ccc(C)cc4)cnc3c2c1-c1ccc(OC)cc1,-14%
CC(C)CCNC(=S)Nc1ccc([N+](=O)[O-])cc1,-29%
CC1CCCCN1CCNS(=O)(=O)c1ccc2c(c1)oc(=O)n2C (stereo not drawn),-4%
C#CC[N+]1(CC#Cc2ccccc2)CCOCC1,-15%
CCC(C)c1ccccc1O (stereo not drawn),-12%&-4%
COc1cccc(NC(=O)c2ccccc2-c2nc(-c3cccc(C)c3)no2)c1,-11%
COc1ccc(CCN(C)CCC(=O)Nc2ccc(C)cc2)cc1OC,-5%

# (listing goes on)
mol,HPGD block
Cc1noc(/C=C/N(C)C)c1S(=O)(=O)N1CCCC(C(=O)NCc2ccc(F)cc2)C1 (stereo not drawn),-18%
Cc1ccc(NC(=O)C(C)N2CCOCC2)c(C(=O)c2ccccc2)c1 (stereo not drawn),-8%
COc1cccc2cc(-c3nnc(SCC(=O)NCc4ccccc4)n3C)oc12,-9%
O=C1c2[nH]nc(-c3ccccc3O)c2C(c2cccc(O)c2)N1Cc1ccco1 (stereo not drawn),-1%
Cc1nc2sc(C)c(C)c2c(=O)o1,-5%
CC(=O)c1cc2c(cc1NC(=O)CCC1CCCC1)OCO2,?
Cc1onc(-c2c(Cl)cccc2Cl)c1C(=O)NCCN1CCOCC1,-12%
COc1cc(C(=S)NC2CCCCC2)ccc1O,?
Clc1ccc(-n2ncc3c(NCC4CCCO4)ncnc32)cc1 (stereo not drawn),?
Cc1cc(SC#N)cc(C)c1NC(=O)CCl,?
CCOC(=O)c1cc2sc(C)cc2n1CC(=O)N(CC)CC,-10%
Cc1ccc(CCNC(=O)CN(C)S(=O)(=O)c2cnc[nH]2)cc1,-6%
Cn1c(=O)c2c(SCC(=O)Nc3ccc4c(c3)OCCO4)nc(CC(C)(C)C)nc2n(C)c1=O,-17%
CC(=O)N/C(=C\c1ccccc1Cl)C(=O)O,-4%
Cc1cc(Br)ccc1NC(=O)CN1C(=O)CCC1=O,0%
Cc1cc2cc(CN(Cc3cccs3)C(=S)NCc3ccco3)c(=O)[nH]c2cc1C,?
O=C(O)Cc1ccc2sc(-c3ccccc3)nc2c1,-17%
COC(=O)N1[C@H](C)C=C[C@]1(Cc1ccccc1)C(=O)NCc1ccc(C)o1,-20%
Cc1cc(C(=O)Nc2nnc(C3CCCCC3)s2)cs1,-10%
O=C(OCc1ccc(Cl)c(Cl)c1)c1ccccn1,1%
COc1ccc(/C=N/NC(=O)c2nc(-c3ccccc3)cc(-c3ccccc3)n2)cc1OC,?
COCCCNC(=O)C1CCN(C(=O)Nc2ccc(Cl)cc2)CC1,-7%
C=CCN(CC=C)CC(=O)Nc1ccc(S(N)(=O)=O)cc1,-4%
Cc1ccc(N(CC(=O)NCc2cccs2)S(=O)(=O)c2cccs2)cc1,-12%

# A draw from above in order of heavy-atom count, largest number first.
mol,HPGD block
Cn1c(=O)c2c(SCC(=O)Nc3ccc4c(c3)OCCO4)nc(CC(C)(C)C)nc2n(C)c1=O,-17%
COc1ccc(/C=N/NC(=O)c2nc(-c3ccccc3)cc(-c3ccccc3)n2)cc1OC,?
Cc1ccc(N(CC(=O)NCc2cccs2)S(=O)(=O)c2cccs2)cc1,-12%

# Going on with the list:
mol,HPGD block
COc1ccc(NC2c3ccccc3C(=O)N2Cc2ccco2)cc1OC (stereo not drawn),-7%
CCCCCNc1nc2ccccc2nc1NS(=O)(=O)c1cccs1,-9%
CCOc1ccccc1-c1cc(-c2ccccc2)nc2c1c(=O)n(C)c(=O)n2C,-7%
Cc1ccc(/C=N/n2cnnc2)s1,-8%
CC(=O)c1cccc(NC(=S)NC(=O)C(C)C)c1,-9%
Cc1ccc(-c2nc3c(c(=O)c4ccccc4n3C)c(=O)n2-c2ccccc2)cc1,-6%
CC1=C(C(=O)O)N2C(=O)C(NC(=O)C(N)c3ccccc3)C2SC1 (stereo not drawn),-10%
O=C(C1CC1)N1CCC(C(O)(c2ccccc2)c2ccccc2)CC1,-11%
O=C(CN(Cc1ccccc1)C(=O)CCC(=O)Nc1nccs1)NCc1ccco1,-5%
COc1cccc(/C=N/N2CCN(c3ccncc3S(=O)(=O)N3CCCCC3)CC2)c1,-20%
Cc1ccc(N=C(NO)c2nonc2N)c(C)c1,-9%
O=C(Nc1ccc(F)cc1)c1cccnc1N1CCOCC1,-7%
Cc1nn(CCC#N)c(NC(=O)c2ccc(Cl)cc2Cl)c1P(=O)(Nc1ccc([N+](=O)[O-])cc1)N1CCOCC1 (stereo not drawn),-6%
Cc1nn(C)c(C)c1-c1c(C#N)c(N)nc2c1CCCCCC2,-24%
Cn1c(=NC(=O)CSCC(=O)N2CCCC2)sc2ccccc21,-8%
O=C(CSc1nnc(Cc2ccccc2)n1Cc1ccco1)NC1CCCC1,-13%
CC#CCN1c2ccccc2[C@]23C[C@@H](C(=O)OC)N(C(C)=O)C2=NC(C(=O)OC)=C(C(=O)OC)[C@H]13,-7%
CC(C)Sc1nc2c(c(=O)[nH]c(=O)n2C)n1CCc1ccccc1,-13%
O=P(c1ccccc1)(c1ccccc1)C1CCCO1 (stereo not drawn),-5%
COc1cccc(-c2csc(N3CCN(C(=S)Nc4ccccc4)CC3)n2)c1,-12%
Cc1c2cnn(CC(=O)O)c(=O)c2c(C)n1Cc1ccccc1,-21%
CC/C(=N\NC(=O)C(N)=O)c1ccccc1O,-14%
Cc1c(/N=C/c2ccco2)n(Cc2ccccc2)c2ccccc12,-4%
Cc1ccc(-c2cc(C(=O)N3CCOCC3)c3ccccc3n2)cc1,?
CCOC(=O)c1c(NC(=O)CSc2ncnc3ccccc23)sc(C(C)=O)c1C,?
COc1ccc(C(=O)N2CCC[C@@]3(CCN(C)C3)C2)cc1,-12%
O=C(NCc1nnc(SCc2ccc(F)cc2)n1-c1ccccc1)C12CC3CC(CC(C3)C1)C2,-8%
Cc1ccc(C)c(NC(=O)CSc2nnc(CCCCCNC(=O)OC(C)(C)C)o2)c1,18µM*
CN(Cc1ccccc1)C(=O)CN(c1ccc(F)cc1)S(=O)(=O)c1ccc2c(c1)OCCO2,-3%
CCCC(=O)NCCCc1nc2ccccc2n1C(C)C,-7%
O=C(Nc1ccccc1Cl)N1CCN(c2ccc3nnc(-c4ccccc4)n3n2)CC1,?
Cc1ccc(CN2C(=O)CCC2C(=O)N2CCN(c3ccc(F)cc3)CC2)cc1 (stereo not drawn),-1%
Cc1ccc(C)c(Cc2c(C)nc3c(C(=O)NCc4ccc5c(c4)OCO5)cnn3c2C)c1,?
CCN(c1ccccc1)S(=O)(=O)c1cc(C(=O)Nc2ccc(Br)cc2)ccc1F,?
C=CCNC(=O)/C(C#N)=C\c1cc(Cl)c(O)c(OCC)c1,-27%
COc1ccc(Cl)cc1NC(=O)CN1C(=O)CSC1=O,-10%
CCCC(C)C(=O)Nc1cc([N+](=O)[O-])ccc1F (stereo not drawn),-4%
O=C(NCc1ccccc1)C(c1ccccc1)N(Cc1ccc2c(c1)OCO2)C(=O)Cc1cccs1 (stereo not drawn),-13%
C[C@H](NC(=O)Nc1cccc(C(F)(F)F)c1)C(=O)O,-2%
CCOC(=O)N1CCN(C(=O)CSc2nnc(COc3ccccc3)o2)CC1,-8%
O=C(CCNC(=O)OCc1ccccc1)NC1CCCCC1,4%
Cc1ccc2c(Cl)c(C)c(N3CCCCC3)nc2n1,-12%
Cc1ccccc1OC(=O)CCC(=O)OCCCC(F)(F)C(F)(F)F,-8%
